# B2AR ag: human beta-2 adrenergic receptor agonism by FAP | P07550 | Am2.2-beta2AR cells, FAP receptor internalization, flow cytometry; reference of the scale not given here | response, % (no concentration beside the values) | 340,000 tested, 0.43% active;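 active = response above a set limit, near 3 SD of response in nonfluorescent compounds, cut at about 42% in these data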;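 also: stock transfer was 100 nL into about 11 µL; a reference agonist was the positive control; negative values mostly stem from fluorescent compounds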
# Beta apoptosis: beta cell apoptosis inhibition | INS-1E cytokine-induced death, ATP luminescence, 48 h; percent of positive-control rescue, neutral wells zero | protection from apoptosis, % (no concentration beside the values) | 300,000 tested, 0.8% active | AID 435005;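 active = all replicates at 75% or more, or half of them and the mean; inconclusive = half reach 75% but not the mean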;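 also: 0% = cytokine-treated negative control wells and 100% = positive control rescue; higher means more ATP so stronger rescue from cytokine killing; wells of about 40 µL received 100 nL stock; the first replicate is given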
# LANA-H2A inh: blocks KSHV LANA binding to histone H2A/H2B; cell-free LANA-H2A/H2B peptide, fluorescence polarization; Q9QR71; inhibition, % (test concentration not listed); 320,000 tested, 0.6% active; in the data active = inhibition mostly above about 10%, no sharp cut-off; inactive = mostly below about 6.7%;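 also: stock transfer was 7.5 nL into about 10 µL; 0% = median of vehicle wells and 100% = median of positive control wells; one replicate is shown; the record names a cut of 25% in any replicate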
# Target sequence (Q9QR71 whole entry, looked up): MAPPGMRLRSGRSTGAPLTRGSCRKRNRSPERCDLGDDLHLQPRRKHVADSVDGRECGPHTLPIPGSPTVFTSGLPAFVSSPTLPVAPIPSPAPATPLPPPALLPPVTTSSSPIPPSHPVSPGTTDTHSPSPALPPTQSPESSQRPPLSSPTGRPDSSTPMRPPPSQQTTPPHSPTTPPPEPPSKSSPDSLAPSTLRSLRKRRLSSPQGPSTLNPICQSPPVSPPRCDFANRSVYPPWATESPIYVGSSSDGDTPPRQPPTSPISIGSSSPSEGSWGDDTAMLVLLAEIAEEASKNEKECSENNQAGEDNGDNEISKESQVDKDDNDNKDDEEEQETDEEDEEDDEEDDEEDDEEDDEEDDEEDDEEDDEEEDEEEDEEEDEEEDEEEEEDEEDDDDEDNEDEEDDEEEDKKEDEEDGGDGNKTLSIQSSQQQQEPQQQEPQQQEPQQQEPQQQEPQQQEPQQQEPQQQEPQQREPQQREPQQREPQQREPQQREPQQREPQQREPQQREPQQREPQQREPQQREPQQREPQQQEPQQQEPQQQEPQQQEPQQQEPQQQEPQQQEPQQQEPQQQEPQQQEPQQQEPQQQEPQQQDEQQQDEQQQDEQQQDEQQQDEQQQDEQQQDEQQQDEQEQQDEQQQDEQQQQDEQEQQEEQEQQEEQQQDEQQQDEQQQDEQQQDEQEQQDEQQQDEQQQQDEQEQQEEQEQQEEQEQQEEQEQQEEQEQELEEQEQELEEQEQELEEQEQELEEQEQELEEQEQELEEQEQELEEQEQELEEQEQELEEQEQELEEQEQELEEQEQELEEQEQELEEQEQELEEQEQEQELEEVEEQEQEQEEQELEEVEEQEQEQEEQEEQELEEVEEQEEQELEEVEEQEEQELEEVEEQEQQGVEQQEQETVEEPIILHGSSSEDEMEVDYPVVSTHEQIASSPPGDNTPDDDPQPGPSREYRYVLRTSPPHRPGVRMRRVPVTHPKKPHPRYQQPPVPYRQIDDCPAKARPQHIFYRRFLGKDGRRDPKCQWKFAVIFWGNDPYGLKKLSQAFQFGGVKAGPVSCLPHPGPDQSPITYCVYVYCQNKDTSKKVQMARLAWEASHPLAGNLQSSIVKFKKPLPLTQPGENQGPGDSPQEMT
# Calb FLC: affects C. albicans growth with fluconazole; growth inhibition, % (test concentration not listed); C. albicans CaCi-2 (fluconazole-resistant clinical isolate) + fluconazole, Alamar Blue growth, 48 h; 300,000 tested, 0.57% active;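 active = most replicates above 75%; inconclusive = exactly half above 75%; inactive = most below 75%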;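 also: all wells also contain fluconazole at 8 µg/ml as a sub-toxic cotreatment; 0% = median of DMSO wells and 100% = median of geldanamycin control wells; wells of about 8 µL received 7.5 nL stock; the first replicate is given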
# UCH37 DUB inh: inhibitors of human deubiquitinating enzyme UCH37 | Q9Y5K5 | purified proteasome/UCH37, Ub-AMC cleavage fluorescence | inhibition, % (test concentration not listed) | 330,000 tested, 0.33% active;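 active = mean of two replicates above 20%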;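 also: 0% = compound-free wells with enzyme and 100% = wells lacking proteasome; stock transfer was 100 nL into about 20 µL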
#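 Material: Human UCH37 enzyme supplied as purified proteasome complex | Schedule: 30 min preincubation with enzyme, 25 min cleavage at room temperature | Detection: AMC fluorescence 355/460 nm | Measure: % inhibition of Ub-AMC cleavage fluorescence | Controls: Wells without proteasome as full block, compound-free enzyme plus substrate as uninhibited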
# RanGTP-Impb inh: disruptors of Ran-importin-beta complex formation – biochemical, FRET, CFP-Ran, YFP-importin-beta, homogeneous, primary screen. 300,000 tested, 1.1% active. cell-free CFP-Ran/YFP-importin-beta FRET ratio. inhibition, % (concentration not given with the values);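 active = most replicates above 15%; inconclusive = exactly half above 15%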;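 also: 0% = DMSO wells and 100% = Ran loaded with GDP instead of GTP; wells of about 40 µL received 100 nL stock; the first replicate is given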
# Bfl-1 A1 inh: inhibitors of the anti-apoptotic protein A1, read as caspase activation. MEF A1-2A-BIM cells, Caspase-Glo 3/7 luminescence, 3 h; percent of clofoctol response, vehicle zero. caspase activation, % (concentration not given with the values). 330,000 tested, 0.066% active;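 active = over half of replicate activation scores above 10%, or exactly half above 10 with the replicate mean above 10; inconclusive = replicate mean below 10 yet half the replicates above 10; inactive = over half of replicates below 10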;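 also: wells of about 30 µL received 50 nL stock; many hits fall short of the cut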
# T cruzi inh: blocks replication of Trypanosoma cruzi | T. cruzi beta-gal in NIH3T3, luminescence, 90 h | inhibition, % (no concentration beside the values) | 300,000 tested, 1.4% active | AID 1885;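 active = mean inhibition across valid replicates above about 55%, limit read from the data; inconclusive = mean below that limit but half or more replicates reach it; inactive = mean below it, under half of replicates reach it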;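 also: signal also drops with host cell toxicity which is not excluded here; 0% = plate median of DMSO wells and 100% = zero luminescence signal; higher percent means less beta-gal luminescence so fewer parasites; stock transfer was 50 nL into about 50 µL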
# * hit, by the source's call; ? = inconclusive; . = no result given. Random draw from the library; 4.3% or so of the library scored in one or more.
SMILES,B2AR ag,Beta apoptosis,LANA-H2A inh,Calb FLC,UCH37 DUB inh,RanGTP-Impb inh,Bfl-1 A1 inh,T cruzi inh
CC(C)Oc1ccc(S(=O)(=O)N2CCCCC2)cc1NC(=O)C1=COCCO1,3,-6,-2.5,5,2.3,.,-0.2,33
S=C(Nc1cccnc1)NC1CCCCCCC1,-4,0,-1.7,-14,1.3,2.8,1.2,-7
Cc1cc(C)nc(NC(=S)Nc2ccccc2)n1,-3,-6,1.9,0,1.4,-0.3,-0.4,-21
Cc1ccc(S(=O)(=O)N2CCOCC2)cc1C(=O)N1CCc2ccccc21,-6,4,-1.7,.,7.6,.,-0.2,.
CN(CC(=O)OCC(=O)NCc1ccccc1)S(=O)(=O)c1ccc(Cl)cc1,-5,-7,-0.9,8,2.6,-0.6,0.8,-9
COc1ccc(-c2csc3ncnc(N4CCN(c5ccc(OC)cc5)CC4)c23)cc1,6,8,0.9,-10,4.9,22*,-0.8,48
[O-][n+]1onc2c1CCC1N(O)C(c3ccccc3)CC21O (configuration not stated),6,5,4.5,?,-0.2,-1.2,1.8,-18
O=C(Cc1cccs1)N/N=C/c1ccccn1,-9,3,2.5,2,.,-3.4,0.2,1
O=C(Nc1ccc(-c2n[nH]c(=S)o2)cc1)c1ccccc1Br,3,1,0.7,0,5.0,-3.8,-5.7,-11
COC(=O)c1nccnc1C(=O)Nc1ccccc1N1CCOCC1,-2,3,-1.1,-13,3.3,0.8,0.4,-1
O=C(Nc1cccc(-n2cnnn2)c1)c1cc(Cl)ccc1Cl,-2,4,-0.1,.,3.9,0.6,-0.3,-5
O=C(Cc1ccccc1)Nc1ccc(F)cc1,-2,.,1.5,-16,3.1,-3.7,0.8,-12
COC(=O)c1c(C)oc2ccc(NS(=O)(=O)c3cccs3)cc12,-3,14,-3.0,23,3.1,0.9,0.2,-27
CC(OC(=O)c1cccs1)C(=O)Nc1nc(-c2ccccc2)cs1 (configuration not stated),1,-7,8.8,-31,2.3,2.5,0.2,5
COc1cccc(CNC(=O)CC2C(=O)NCCN2Cc2ccoc2)c1OC (configuration not stated),2,0,3.1,-41,-5.2,0.3,-0.5,9
O=C(COC(=O)/C=C/c1ccc(Cl)cc1)NC1CCCC1,1,3,-2.9,.,0.0,.,-0.1,.
CSc1cccc(NS(=O)(=O)c2cccc3nsnc23)c1,4,-2,2.4,2,2.0,-1.9,-1.0,-2
N#CCC(=O)N/N=C/c1ccc(OCC(=O)Nc2ccc(F)cc2)cc1,1,7,5.2,-11,.,2.0,0.2,-9
COc1ccc(C(N)=O)cc1NC(=O)c1cccc(F)c1,28,-1,-7.8,6,-0.2,0.3,1.2,-11
CC(C)CNC(=O)c1cccc(NC(=O)c2ccco2)c1,-14,.,-4.8,10,1.9,0.3,-0.5,-2
COc1cccc(C(=O)Nc2ccc3c(c2)C(=O)NC3=O)c1,0,-9,3.0,5,-4.4,-1.2,-7.4,-2
O=C(NC1CCCC1)c1cccc(NC(=O)c2ccco2)c1,8,-2,1.3,22,5.3,-2.2,-1.2,-11
O=C1CNC(=S)N1Cc1cccc(Cl)c1,14,-5,2.1,-39,2.9,4.4,0.6,5
COc1cc2sc(-c3ccc(S(C)(=O)=O)cc3)c(C(=O)NCCCCO)c2cc1OC,-3,-7,2.3,.,-45,.,?,.
CCc1nnc(NC(=O)c2ccc(COc3cccc(C)c3)o2)s1,-2,-11,-7.5,1,5.2,3.7,0.7,-11
# (next part)
SMILES,B2AR ag,Beta apoptosis,LANA-H2A inh,Calb FLC,UCH37 DUB inh,RanGTP-Impb inh,Bfl-1 A1 inh,T cruzi inh
O=C(O)c1cc(S(=O)(=O)N(Cc2ccccc2)c2cccc(C(F)(F)F)c2)ccc1Cl,10,3,0.2,6,4.8,-1.1,-0.5,0
CCc1cc2c(=O)n(CCC(C)C)c(=S)[nH]c2s1,5,9,2.7,38,-0.1,-5.0,-0.6,-3
COc1ccc(OC)c(CN2CCCC(C(=O)c3ccccc3SC)C2)c1 (configuration not stated),-1,5,-1.9,-4,3.5,-0.6,-1.0,26
COc1ccc(CCNC(=O)CSc2nnc3ccc(-c4ccccn4)nn23)cc1,-1,-4,-0.4,7,0.7,-0.2,-0.9,-4
COCCOC(=O)C(CC(=O)O)NCc1ccco1 (configuration not stated),-6,-3,0.2,-7,4.0,1.1,-0.5,-9
COc1cccc(-n2c(C)cc(/C=C3\C(=N)N4N=C(CC(=O)N5CCOCC5)SC4=NC3=O)c2C)c1,-2,-8,0.9,49,-0.5,16*,-1.0,-2
CC(C)(C)c1ccc(C(=O)NCCOc2ccccc2F)cc1,-10,4,2.3,-5,3.8,?,-2.9,7
O=C(Nc1cn(-c2ccccc2)nc1-c1ccc(F)cc1)c1ccccc1,-12,-2,0.7,16,.,-3.5,-0.1,11
CC(CCc1ccccc1)NC(=O)CCN1N=C(c2ccccc2)CCC1=O (configuration not stated),0,-2,-13,10,5.0,-2.0,-0.1,6
CCOCCn1c(CN2CCCC(C)C2)nc2c1c(=O)n(C)c(=O)n2C (configuration not stated),-9,-4,1.4,9,2.2,?,-0.1,-16
Cc1noc(C)c1S(=O)(=O)NCc1cccc(Cl)c1,10,-2,-3.0,.,2.1,.,0.9,.
CCN(C(=O)CSc1nnc(COc2cccc(C)c2)o1)c1nc(C)cs1,0,0,0.2,-1,-1.0,-5.2,-0.1,-3
CC(C)c1[nH]nc2c1C(C(C)C)C(C#N)=C(N)O2 (configuration not stated),-1,4,2.5,43,0.3,1.1,0.0,?
CC(=O)c1ccc(NC(=O)CCC(=O)OCC(=O)c2cccc([N+](=O)[O-])c2)cc1,-12,-3,-0.1,-9,4.6,-1.0,0.3,-9
CC(C)C(C)NC(=O)CN1C(=O)NC(c2ccccc2)(c2ccccc2)C1=O (configuration not stated),1,-1,-0.1,-3,-0.9,?,-0.5,8
O=C(Cn1cnc2ccccc2c1=O)Nc1ccccc1N1CCOCC1,-5,-6,-3.0,-1,1.9,3.4,-0.2,-10
Cc1cc(C)cc(N(CC(=O)NCC2CCCO2)C(=O)CCC(=O)Nc2cc(C)on2)c1 (configuration not stated),5,-3,-1.2,-7,1.5,2.0,0.0,-2
CN1C(=O)/C(=C/c2coc3ccc(O)cc3c2=O)SC1=S,-15,-7,11,3,5.7,?,-5.4,-2
COc1cccc(CNC(=O)Cc2ccc(OC)c(S(=O)(=O)N3CCOCC3)c2)c1,-1,-4,3.7,-3,0.0,.,-1.0,-12
Cc1ccc(NC(=O)c2cc(C)n(-c3cccc(C)c3)c2C)cc1,11,5,0.1,6,0.7,-1.8,0.0,4
O=C(NCC1CCCO1)C1CCN(CC2CCCCC2)CC1 (configuration not stated),-1,-2,-5.2,19,5.8,5.4,0.8,1
CC(C)CC(=O)NC(=S)Nc1ccc(Cl)cn1,-21,2,5.7,-7,4.5,-2.8,-0.5,7
COC(=O)c1ccccc1CC1SC(N)=NC1=O (configuration not stated),10,-3,-7.8,0,2.5,0.6,0.0,-11
Cc1ccc(-c2nnc(SCC(=O)NC3CC3)o2)cc1,-3,5,-0.4,-4,1.4,-0.3,0.1,-6
CC1C(=O)N2CCCc3cc(S(=O)(=O)N4CCCCC4)cc1c32 (configuration not stated),-3,2,-1.1,.,1.9,6.5,0.9,-2
# Following part
SMILES,B2AR ag,Beta apoptosis,LANA-H2A inh,Calb FLC,UCH37 DUB inh,RanGTP-Impb inh,Bfl-1 A1 inh,T cruzi inh
O=C(c1n[nH]c(=O)c2ccccc12)N1CCN(c2ccccc2Cl)CC1,-15,-2,1.4,?,1.3,-1.0,0.6,2
C[C@H](CO)N1C[C@H](C)[C@@H](CN(C)C(=O)Nc2ccccc2)Oc2ccc(NC(=O)Nc3ccccc3)cc2C1=O,-6,-6,-367,.,4.9,.,-0.8,.
Cc1ccc(N(CC(=O)NCC2CCCO2)C(=O)Cn2nnc(-c3cccs3)n2)cc1 (configuration not stated),-1,.,-2.7,7,1.9,-0.8,0.4,-10
COc1cc(C(C)=O)ccc1OCC(=O)Nc1ccccc1N1CCCC1,-8,-3,0.1,-8,.,-2.7,-0.2,-5
CCOC(=O)Cc1cc(=O)n2[nH]c(-c3ccc(Cl)cc3)cc2n1,1,-6,8.2,25,-2.7,1.8,0.5,0
CN(CC(=O)Nc1ccccc1N1CCOCC1)S(=O)(=O)c1ccc(F)cc1,19,-6,0.7,3,2.1,-3.6,1.4,2
Cc1nc(Nc2ccc(S(N)(=O)=O)cc2)sc1-c1ccccc1,4,-3,6.4,0,-23,-2.1,-0.3,1
CC(=O)Nc1ccc(NC(=O)COc2ccc(-c3ccc(C#N)cc3)cc2)cc1,8,3,3.5,.,.,-2.5,0.2,-1
Cc1ccc(OCc2cccc(S(=O)(=O)N(C)C)c2)c([N+](=O)[O-])n1,5,-8,0.7,-6,.,-0.8,-0.8,-3
COc1ccc(/C=N/n2nnnc2N)cc1OC,-2,0,-0.8,-2,.,-0.9,-0.2,-17
CNC(C)C(=O)NC(C(=O)N1CCCC1C(=O)Nc1ccc2ncccc2c1)C(C)C (configuration not stated),6,8,2.2,.,-3.3,.,0.9,.
CCc1ccc(NC2=CC(=O)CC(C)(C)C2)cc1,-5,-6,-4.6,-8,2.8,-0.5,2.1,-12
O=C(CC(=O)Nc1ccc(Cl)c(Cl)c1)N/N=C/c1ccc(O)cc1,7,3,3.3,4,.,2.1,-1.1,-1
CC1CCCN(C(=O)Cn2nnc(-c3ccccc3F)n2)C1 (configuration not stated),-6,.,3.9,3,2.2,3.4,1.6,-3
O=C(NCC1CCCN(Cc2ccc3nonc3c2)C1)c1ccc(F)cc1 (configuration not stated),-4,-3,0.0,-25,3.0,2.9,-1.1,43
c1ccc(N2CCN(Cc3ccnc4ccccc34)CC2)cc1,14,-4,0.7,12,3.0,3.8,-0.1,-5
O=C(NCc1cccs1)c1cccc(N2CCCC2=O)c1,1,-3,2.3,0,1.3,0.6,0.1,12
CNC(=O)C1CC(=O)N(Cc2ccc3c(c2)OCO3)C(=Nc2ccc(OC)cc2)S1 (configuration not stated),-7,-1,-1.1,-7,2.7,-2.0,0.4,13
O=C(NCCN1CCOCC1)c1ccc2ccccc2n1,12,-3,0.3,21,-0.3,-2.2,0.2,2
Cc1ccc(SCCC(=O)Nc2ccccc2C(=O)N2CCOCC2)cc1,5,-3,0.4,-2,-1.0,?,-0.5,5
COc1ccc(NC(=O)CC2C(=O)NCCN2C(=O)c2ccc(Cl)cc2)cc1 (configuration not stated),-2,6,1.8,0,0.6,1.0,0.7,-14
O=C(c1ccc2ncsc2c1)N1CCCCC1,8,-8,2.1,7,2.9,-2.0,1.2,8
CCc1ccc(/C=C/C(=O)c2cc(Br)ccc(=O)c2O)cc1,21,0,-6.7,94*,2.5,-5.6,-0.5,33
OCC[C@@H]1C[C@@H](O)[C@H](O)[C@]2(CCCCO2)O1,-2,0,7.7,-4,-0.2,-2.4,-0.5,-11
Cc1ncc(CN2CCC(CO)(CCOc3ccccc3)CC2)s1,-4,-10,1.4,-19,5.0,5.2,-0.6,43
c1ccc(Cn2cc(CSc3ccccc3)nn2)cc1,1,-6,3.2,-15,1.0,0.9,0.7,-7
